Compound activity (PubChem)
LT uptake inh: qHTS Assay for Anthrax Lethal Toxin Internalization; Cells, anthrax lethal toxin internalization, FRET ratio (460/530); Potency, µM (highest dose often 40 µM), for inactives: at the top dose activity change, negative = inhibition, usual class: inhibitors; 70,000 tested, 0.67% active; active = well fitted falling ratio curve with the 530 nm signal flat; inconclusive = other ratio curves, or a change in one channel alone; inactive = flat curves in the ratio and both channels; the % refers to the ratio; also: % is scaled to controls: 0 for no effect and ±100 for the full control effect; nearly all actives have a fitted effect of over 50% in size; tested in ME-180 cells; beta-lactamase reporter
Prx2 Sm inh: Schistosoma Mansoni Peroxiredoxins (Prx2) | Schistosoma mansoni peroxiredoxin 2 (Prx2) | 65,000 tested, 0.07% active | S. mansoni Prx2 activity coupled to TGR/GSH (TGR is thioredoxin glutathione reductase), NADPH fluorescence loss, qHTS; some inactives read as strong as hits | Potency, µM; active means full or partial inhibition curve with a strong effect at the top dose; inconclusive means weaker partial or single-point curve; inactive means no accepted curve; also: series up to 57 µM; many of its hits are not listed in these tables
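Coupled assay in which S. mansoni TGR passes NADPH reducing equivalents via glutathione to Prx2, which reduces H2O2. Compounds were preincubated 15 min at room temperature with 25 nM TGR/50 nM Prx2 mix. Kinetic NADPH fluorescence loss (ex 365/em 450 nm) was monitored.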
Numbers without * were called inactive; u = inconclusive; x = not tested or not shown; [ ] = another dose, or the depositor's remark. Potency is read from the fitted curve at half-maximal effect.

Molecule	LT uptake inh	Prx2 Sm inh
N#C[C@@H]1[C@@H]2C(=O)N(c3ccc4c(c3)OCCO4)C(=O)[C@@H]2C2c3ccccc3C=CN21 (some centres undefined)	-6%	>57
Cc1ccc(C(=O)CCC2CCCC2=O)cc1 (centres undefined)	6%	>57
COc1cccc(NC(=O)C2CCN(c3ncccn3)CC2)c1	u	>57
CCOC(=O)c1ccc(Oc2nc(NC(C)(C)C)nc(N(C)C)n2)cc1	u	>57
CCc1cccc2c(=O)c(C(=O)N3CCOCC3)c[nH]c12	1%	>57
CCOCCCNS(=O)(=O)c1ccc(Br)cc1	6%	>57
CCCC1(CCC)NC(=O)NC1=O	-1%	>57
CS(=O)(=O)N(CC(=O)N1CCC(C(N)=O)CC1)c1ccc(Oc2ccccc2)cc1	-2%	x
CC(Cc1ccccc1)N/C=C1/CC(=O)NC1=O (centres undefined)	-14%	x
CCCCOc1ccc(C(=O)Oc2ccc(C)nc2)cc1	5%	>57
Cc1nc(NCc2ccccc2)c2nc(-c3ccccc3)n(CCN3CCCCC3)c2n1	u	x
CCOc1cccc(C(=O)Nc2ccc(N3CCN(S(C)(=O)=O)CC3)cc2)c1	4%	>57

Entries above with a carbonyl joined to an NH by a bond outside any ring:
Molecule	LT uptake inh	Prx2 Sm inh
COc1cccc(NC(=O)C2CCN(c3ncccn3)CC2)c1	u	>57
CS(=O)(=O)N(CC(=O)N1CCC(C(N)=O)CC1)c1ccc(Oc2ccccc2)cc1	-2%	x
CCOc1cccc(C(=O)Nc2ccc(N3CCN(S(C)(=O)=O)CC3)cc2)c1	4%	>57

Next part
Molecule	LT uptake inh	Prx2 Sm inh
CCCN(CCC)C(=O)CSc1nc2n[nH]c(C)c2c(=N)n1-c1ccc(OCC)cc1	-10%	>57
NC(=O)c1c(NC(=O)COC(=O)CSc2nnc(-c3ccc(Cl)cc3)o2)sc2c1CCC2	-5%	>57
CCCCN(CCCC)S(=O)(=O)c1ccc(C(=O)Nc2nnc(COC)o2)cc1	3%	>57
COC(=O)CNC(=O)C12CC3(C)CC(C)(CC(C)(C3)C1)C2	6%	>57
CC(=O)Nc1ccc2c(c1)CCCN2C(=O)c1ccccc1	4%	>57
Cc1cccc(CCNS(=O)(=O)c2cnc[nH]2)c1	5%	>57
CCC(C)[C@@H](NC(=O)OC(C)(C)C)c1nnc(S(=O)(=O)Cc2cccc(C)c2)o1 (some centres undefined)	u	>57
COc1ccccc1-c1cc(C(=O)NCc2ccc(F)cc2)no1	u	>57
CCOC(=O)c1ccccc1NC(=O)CSc1nc2ccccc2n1CC(=O)N1CCCC1	15%	>57
Cc1nc2ccc(NC(=O)c3c(-c4ccccc4)noc3C)cc2s1	-1%	>57
CCN(C1CCCCC1)S(=O)(=O)c1cc(C)ccc1OC	u	>57
Cc1nc2sc(C(c3cccs3)N3CCN(C(=O)c4ccco4)CC3)c(O)n2n1 (centres undefined)	4%	>57
COC(=O)CSc1nc(C2CC2)nc2ccccc12	-6%	>57
COc1ccc2c(C(F)(F)F)cc(=O)oc2c1C	-13%	>57
O=C(c1ccc2c(c1)C(=O)N(Cc1ccco1)C2O)N1CCOCC1 (centres undefined)	-4%	>57
O=S(=O)(c1ccc2c(c1)OCCO2)N1CCC(c2nc3ccccc3[nH]2)CC1	u	>57
COc1ccc(-n2c(=O)c(-c3cn(C)c4ccccc34)nc3cnc(N4CCOCC4)nc32)cc1	u	>57
O=C(OCc1ccccc1)c1ccccc1O	-12%	x
O=C(COc1ccc(Cl)cc1Cl)NC(=O)N1CCOCC1	6%	>57
O=C(NCc1ccc2c(c1)OCO2)C1CCCN1C(=O)Nc1ccccc1 (centres undefined)	4%	>57
CC(=O)Oc1ccc2oc3c(c2c1)C(=O)CCC3	-14%	>57
CCOCCCNC(=O)c1ccccc1Br	-2%	>57
CCOC(=O)c1sc(NC(=O)CSc2nnc(-c3ccco3)o2)c(C(=O)OCC)c1C	-5%	>57
COc1cccc(CNC(=O)C2CCN(Cc3cnn(-c4ccccc4)c3-n3cccc3)CC2)c1	3%	>57
COc1ccc(C2CC(C(F)(F)F)n3nc(C(=O)N(C)Cc4cn(C)nc4C)c(Cl)c3N2)cc1 (centres undefined)	-17%	>57
Cc1ccc(S(=O)(=O)c2c(N)n(/N=C/c3ccco3)c3nc4ccccc4nc23)cc1	12%	>57
COc1ccccc1-n1nnnc1SCC(=O)Nc1cc(C)on1	x	>57
CN(C)c1ncc2ncc(=O)n(C)c2n1	0%	>57
Cn1cccc1Cc1nnc(SCC(=O)Nc2nc3ccccc3s2)n1CCc1ccccc1	u	>57
N#CC1=C(N)SC(N)=C(C#N)C1C1CC=CCC1 (centres undefined)	-4%	>57
Clc1cccc(Cl)c1Cn1cnc(=NCc2ccco2)c2[nH]cnc21	1%	>57
CCOC(=O)C1CCN(Cc2nc3ccc(Cl)cc3n2CCO)CC1	4%	>57
NC(=O)CSC1=Nc2ccccc2C2=NC(CC(=O)NCc3cccs3)C(=O)N12 (centres undefined)	10%	>57
Cc1onc(-c2ccccc2Cl)c1C(=O)NC1CCS(=O)(=O)C1 (centres undefined)	1%	>57
Cc1cc(N2CCN(S(=O)(=O)Cc3ccccc3)CC2)n2ncnc2n1	4%	>57
COC(=O)c1ccc(Sc2ccc(C)cc2)c(N)c1	-7%	>57
O=C(c1ccc2c(c1)OCCO2)C1CCN(C(=O)c2ccc(F)c(F)c2)CC1	6%	>57
Cc1ccc2oc(=O)n(Cc3ccccc3OC(C)C)c2c1	u	>57
COc1ccc(NC(=O)CC2Sc3ncnn3C2=O)cc1 (centres undefined)	u	>57
CC(C)CNS(=O)(=O)c1ccc(OCC(=O)Nc2ccc3c(c2)OCO3)c(Cl)c1	u	x
COc1ccc(Cl)cc1NS(=O)(=O)c1ccc(S(=O)(=O)N2CCCC2)cc1	-11%	>57
COc1ccccc1NC(=O)c1cc(C(=O)O)ccc1C(=O)O	-7%	>57
O=C(O)CC(CC(=O)O)n1cccc1	-12%[8 µM]	>57
CCOC(=O)c1cc(NC(=O)CSCCO)ccc1Cl	12%	>57
CCNC(=O)NC(=O)COC(=O)CNC(=O)COc1ccccc1	12%	>57
O=C(c1ccc2c(c1)OCO2)N1CCN(c2ccccc2)CC1	x	>57
CCCOc1ccc(N2C(=O)CC(N3CCN(c4ccccc4OC)CC3)C2=O)cc1 (centres undefined)	-22%	>57
CC[C@@H]1CN2CCc3cc(OC)c(OC)cc3[C@H]2C[C@@H]1C[C@@H]1NCCc2cc(O)c(OC)cc21	u	>57
Cc1ccc(NC(=O)c2c(-c3c(F)cccc3Cl)noc2C)cc1F	10µM*	x
CSc1nc2n(n1)C(c1cc(Br)ccc1F)C(C(=O)N(C)C)=C(C)N2 (centres undefined)	7%	>57
O=C(NCCc1ccccc1)c1ccnc(/C=N/O)c1	-13%	>57
Cc1cc(C)n(Cc2cccc(F)c2)c(=O)c1C#N	x	>57
O=C(CSC1=Nc2ccccc2C2=NC(CC(=O)NC3CCCCC3)C(=O)N12)NCc1ccco1 (centres undefined)	u	>57
Cn1c(CCNC(=O)c2cccs2)nnc1SCC(=O)N1CCN(c2ccccc2)CC1	x	>57
COc1cc(C(=O)OCCN2CCOCC2)cc(OC)c1OC	-1%	>57
COc1ccc(N2C(=O)CCC(C(=O)Nc3ccccn3)C2c2ccc(OC)c(OC)c2)cc1 (centres undefined)	0%	>57
COc1ccc(-c2nc3c(=O)n(C)c(=O)[nH]c3n2CCc2ccccc2)cc1	-4%	>57
O=C(Nc1cccc(NC(=O)c2cccnc2)c1)c1cccnc1	2%	>57
CN(C)Cc1ccc(-c2cc3onc(-c4ccccc4)c3c(=O)n2C)cc1	-5%[8 µM]	>57
Cc1noc(C)c1CSCC(=O)OCC(=O)N1CC(=O)Nc2ccccc21	0%	>57

Later entries.
Molecule	LT uptake inh	Prx2 Sm inh
CC(C)Cn1cc(C(=O)NCc2cccs2)c2c3ccccc3n(C)c2c1=O	-1%	>57
Cc1ccc2c(c1)NC(=O)C(CC(=O)NCc1ccc(F)cc1)O2 (centres undefined)	-6%	>57
c1ccc(-n2nnnc2-n2nnc3ccccc32)cc1	-7%	>57
COc1ccc(S(=O)(=O)N2CCc3ccccc32)cc1C(=O)OCc1c(C)noc1C	-5%	>57
O=C(CN1C(=O)c2ccccc2C1=O)Nc1ccc(-c2nc3ccccc3o2)cc1	13%	>57
Cc1ccc(S(=O)(=O)Nc2ccccc2C=O)cc1	-6%[8 µM]	>57
O=C(NCc1cccs1)c1ccc2c(c1)ncn2C1CCCC1	-16%	>57
CN(CC(=O)N1CCN(c2ccccn2)CC1)S(=O)(=O)c1ccccc1	-10%	>57
CNC(=O)[C@@H]1C[C@H]1[C@@H](NP(=O)(c1ccccc1)c1ccccc1)c1ccccc1	u	>57
COC(=O)c1ccc(C(NC(=O)OCc2ccccc2)/C(=C/[C@@H](C)C(=O)N(C)Cc2ccccc2)c2cccnc2)cc1 (some centres undefined)	-2%	x
COc1cccc(OC)c1-c1nnc(-c2cn(C)c3ccccc23)o1	-6%	>57
O=C1C=C[C@@H](O)[C@H]2[C@@H]3C(=O)N(Cc4ccc5c(c4)OCO5)C(=O)[C@@H]3CC[C@H]12	3%[1.6 µM]	x

Overlap with the part before: two entries, then new ones.
Molecule	LT uptake inh	Prx2 Sm inh
COc1cccc(OC)c1-c1nnc(-c2cn(C)c3ccccc23)o1	-6%	>57
O=C1C=C[C@@H](O)[C@H]2[C@@H]3C(=O)N(Cc4ccc5c(c4)OCO5)C(=O)[C@@H]3CC[C@H]12	3%[1.6 µM]	x
COc1ccc(OC)c2[nH]c(=O)c(CCNC(=O)c3ccc(S(=O)(=O)N4CCCCC4)cc3)cc12	-14%	>57
CCN(CC)S(=O)(=O)c1cccc(C(=O)NC2CCCCC2)c1	-12%	>57
O=c1cc(-c2ccccc2)oc2cc(O[C@H]3O[C@H](CO)[C@@H](O)[C@H](O)[C@@H]3O)c(O)c(O)c12	u	>57
CCC1CCCCN1CCCNC(=O)CC1Oc2ccccc2NC1=O (centres undefined)	-10%	>57
CCCCOc1nc(N)nc(-c2ccccc2)n1	11%	>57
c1ccc(CNc2ncnc3ccc(-c4ccoc4)cc23)cc1	-3%	>57
COc1ccc(CC(=O)Nc2nncs2)cc1OC	-3%	>57
O=C(c1cc2ccccc2o1)c1cccs1	u	>57
Cc1noc(C)c1C(=O)N1CCC2(CC1)CN(C(=O)Nc1cccc(F)c1)C2	-8%	>57
CC(CCc1ccccc1)NC(=O)CSc1nc(N)cc(N)n1 (centres undefined)	-21%	>57
COc1ccccc1-n1nnnc1SCC(=O)NC1CCCC1	-2%	>57
N#Cc1cccc(NC(=O)CCC2CCCC2)c1	-22%	>57
COc1cc(NC(=O)N2CCOCC2)cc(OC)c1	6%	>57
c1ccc(-c2oc3ncnc(NCCN4CCOCC4)c3c2-c2ccccc2)cc1	u	>57
CCC1Oc2ccccc2N(CC(=O)NCCN2CCc3ccccc3C2)C1=O (centres undefined)	2%	>57
Cc1cccc(C2c3c(n(C)c(=O)n(C)c3=O)N=C3c4ccccc4C(=O)C32)c1 (centres undefined)	9%	>57
COC(=O)C1C(C)OC(=O)NC1c1ccccc1 (centres undefined)	-5%[8 µM]	x
Nn1c(SCC(=O)Nc2ccc(F)cc2F)nnc1C1CCCCC1	2%	>57
CCOCCn1cnc2sc(C(=O)NCC(=O)OCC)c(C)c2c1=O	10%	>57
CC(C)CO/N=C1/C[C@@H](O)[C@@H](O)[C@@H]2[C@@H]3C(=O)N(Cc4ccc5c(c4)OCO5)C(=O)[C@H]3CC[C@H]12	-2%[8 µM]	x
O=C(O)Cn1nc(C(F)(F)F)c2c1CCC2	-8%	>57
CCOc1ccc(-c2cnc(SCC(N)=O)nc2N)cc1	4%	>57
CN(Cc1ccccc1)c1nc2c(c(=O)n(C)c(=O)n2C)n1CCSc1ncccn1	-11%	>57
COc1cc2c(cc1O)CCC1C2CC[C@@]2(C)C1CC[C@@H]2O (some centres undefined)	u	>57
C/C(=N\O)C(C)(C)NC(=O)Nc1ccc(Cl)cc1	3%	>57
Cc1nn(C)c(C)c1S(=O)(=O)N1CCCC(C(=O)N2CCN(c3ccc(Cl)cc3)CC2)C1 (centres undefined)	8%	>57
CCc1nnc(NS(=O)(=O)c2ccc(NS(=O)(=O)c3ccccc3)cc2)s1	-12%	>57
COc1cc(CCC(=O)OCc2nnc(-c3ccccc3)o2)cc(OC)c1OC	10%	>57
S=C(NCC1CCCO1)n1nnc2ccccc21 (centres undefined)	-25%	>57
CCOc1ccc(-c2nn3c(-c4ccccc4)nnc3s2)cc1	-3%	>57

A draw from above in order of molar mass, largest number first:
Molecule	LT uptake inh	Prx2 Sm inh
Cc1nn(C)c(C)c1S(=O)(=O)N1CCCC(C(=O)N2CCN(c3ccc(Cl)cc3)CC2)C1 (centres undefined)	8%	>57
COc1cc(CCC(=O)OCc2nnc(-c3ccccc3)o2)cc(OC)c1OC	10%	>57
C/C(=N\O)C(C)(C)NC(=O)Nc1ccc(Cl)cc1	3%	>57

Only part of the results is shown. The share of hits here may be higher or lower than overall.
